# High-throughput results deposited in PubChem BioAssay by National Center for Advancing Translational Sciences (NCATS).
# PMP22 txn prim: modulators of PMP22 gene transcription in S16 Schwann cells; S16 Pmp22-F2sN Schwann cells (luciferase reporters placed in the Pmp22 gene), FLuc/NLuc coincidence luminescence, 24 h; Potency, µM (doses to about 57.5 µM), inactives show top-dose activity change, negative = inhibition, most hits filed as inhibitors; actives 2% (n = 43,000); active = clear falling dose curves in both reporters; inconclusive = both reporters move, but less clearly or upward; inactive = either reporter flat; the % is the NLuc reporter signal; further: on the % scale 0 is the no-effect control and ±100 the full control effect; some results filed as inactive show a strong effect at the top dose
#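 qHTS, 1536-well. Cells seeded, compounds added by pin tool, 24 h 37C. Nano-Glo reagent 1 (lysis/FLuc), 10 min RT, read; Stop&Glo, 10 min RT, read NLuc.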
# HTT prom inh: inhibits huntingtin promoter activity. Potency, µM (series often up to 57.5 µM), without a hit: at the highest dose activity change, negative = inhibition, usual class: inhibitors. actives 0.93% (n = 48,000). HEK293 HTT promoter firefly luciferase reporter (activity 0% = vehicle and -100% = no light), 24 h; active means well fitted inhibition curve with a large enough effect; inconclusive means small, poorly fitted or top-dose-only effect; inactive means no such curve, though single readings can be large or run the other way; further: nearly all actives have a fitted effect of over 50% in size
#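 HEK293 Fluc reporter, 2,500 cells/well, 24 h pre-culture; cpds up to 57.5 uM final, 24 h 37 degrees C; Dual-Glo, 10 min RT; normalized vehicle = 0%, zero RLU = -100%.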
# Starred values were filed as active, the others as inactive; ? = inconclusive; . = no result given; & = joins results of further samples; [ ] = another dose, or the depositor's remark. Potency means the concentration at half of the fitted maximal effect.
Molecule	PMP22 txn prim	HTT prom inh
CCn1c(CNC(=O)C23CC4CC(CC(C4)C2)C3)nnc1SCC(=O)Nc1ccc(F)cc1	0%	-28%
Cc1ccc(NC(=O)C2CCCN2S(=O)(=O)c2ccc3nc(-c4ccccc4)[nH]c3c2)cc1C (centres undefined)	-16%	-21%
CCOC(=O)c1cccc(NC(=O)CCc2c(C)nc3c4cccnc4nn3c2C)c1	-10%	-12%
COc1ccccc1NC(=O)Cn1c(=O)c(CNc2ccccc2)cc2cc(OC)c(OC)cc21	?	-2%
CCC(=O)Nc1nnc(SCc2cc(=O)c3cc(C)ccc3[nH]2)s1	?	-29%
Cc1ccc(NC(=O)Cn2c(CCC(=O)O)ccc2-c2cccs2)cc1Cl	-7%	-21%
CCCn1c2ccccc2c2cnn(CC(=O)N3CCCC(C)C3)c(=O)c21 (centres undefined)	-13%	-18%
CCCSc1ncc(Cl)c(C(=O)Nc2scc(-c3ccc(C)cc3)c2C(=O)OCC)n1	-9%	-15%
Cc1ccc(CSCCC(=O)NCc2ccc(F)cc2Cl)cc1	5%	?
CCOC(=O)c1ccc(NC(=O)CN2CCCCC2)cc1	.	15%
Cc1ccc(CCNC(=O)C2COc3ccccc3C2)cc1 (centres undefined)	7%	-6%
CC(=O)Nc1ccc(NS(=O)(=O)c2c(C)nc3sccn3c2=O)cc1	-23%	-4%
CCOC(=O)N1CCC2(CC1)OC(=O)C(C)=C2C(=O)NCc1cccc(F)c1	2%	-5%
CCOc1ccc(OCC)c(NS(=O)(=O)c2c(C)[nH]c(=O)[nH]c2=O)c1	-5%	-8%
CC1=C(C(=O)OC2CCCC2)C(c2ccccc2Cl)CC(=O)N1 (centres undefined)	9%	?
CCc1ccccc1N(C)C(=O)C1CCCN(c2ncnc3c2nc2n3CCCCC2)C1 (centres undefined)	?	?
CCOc1ccc(C(=O)Nc2cc(-c3nc4cc(OC)ccc4o3)ccc2C)cc1[N+](=O)[O-]	-28%	30%
Cc1cc(N2CCN(C)CC2)nc2ccc(NC(=O)Nc3ccc(Cl)cc3)cc12	?	23%
Cc1cc2c(cc1S(=O)(=O)CCC(=O)N(C)Cc1ccccc1)OCC(=O)N2	-10%	-1%
COc1ccc(-c2nc3sc(CCNC(=O)c4cc(Cl)ccc4OC)c(C)n3n2)cc1	?	24%
CCOC(=O)c1[nH]c2ccccc2c1NC(=O)c1ccc(Br)cc1	-17%	-6%
Cc1cccc(C(=O)Nc2ccc(C(=O)OCc3cc(=O)n4nc(C5CC5)sc4n3)cc2)c1	-3%	-21%
CCCCN1C(=O)c2[nH]nc(-c3ccccc3O)c2C1c1ccc(OCc2ccccc2)c(OC)c1 (centres undefined)	?	?
CC(C)c1ccc(-c2noc(SCC(=O)N3CCN(c4ccc(F)cc4)CC3)n2)cc1	9%	?
CCOc1ccc(NC(=O)C2CCCN(S(=O)(=O)c3cccc4nonc34)C2)cc1 (centres undefined)	-22%	-18%
O=C(c1ccc2c(c1)N(Cc1ccc(Cl)cc1)C(=O)c1ccccc1S2(=O)=O)N1CCCCCC1	?	?
COc1ccc(CNC(=O)CSc2nc(-c3ccc(OC)c(OC)c3)cc(C(F)(F)F)n2)cc1	?	-18%
CC(C)c1ccc(N2C(=O)CSC23C(=O)N(Cc2ccccc2F)c2ccccc23)cc1 (centres undefined)	-23%	-20%
CN(C)c1ccc(-c2nc(-c3ccccn3)no2)cc1[N+](=O)[O-]	?	?
COc1ccc(-c2nc3ccccc3o2)cc1NC(=O)c1cc(Br)ccc1OC	-16%	-2%
CSc1cccc(NC(=O)C2CCN(S(=O)(=O)c3ccc4c(c3)CCCN4C(=O)C3CCC3)CC2)c1	-4%	?
CCc1sc(Nc2cccc(Cl)c2)nc1-c1cc2cccc(OC)c2oc1=O	-10%	?
CCOc1ccc(C(=O)c2cn(CC(=O)Nc3ccc4c(c3)OCO4)c3ccc(OC)cc3c2=O)cc1	?	-8%
CCc1cccc(C)c1NC(=O)CN1C(=O)c2c(c3ccccc3n2C)C1c1ccc(OC)cc1 (centres undefined)	0%	-27%
CC(C)Oc1ccc(NC(=O)c2cc3ccccc3o2)cc1	-3%	-25%
O=C(Nc1ccc(Br)cc1)c1cc(-c2cccs2)nc2ccccc12	?	?
O=S(=O)(c1ccc(Cl)cc1)N1CCC(c2ccncc2)CC1	5%	-7%
O=C(/C=C/c1ccc(F)cc1)Nc1nc2n(n1)C(c1ccc(Cl)cc1)C=C(c1ccccc1)N2 (centres undefined)	?	-28%
CC(C)NC(=O)c1nn(-c2ccccc2F)nc1CO	-7%	-21%
COC(=O)c1c(C)oc2ccc(N(C(=O)c3ccncc3)S(=O)(=O)c3cc(C)ccc3C)cc12	12µM*	28µM*
Cc1ccn2c(=O)c(C(=O)NCCc3ccc(S(N)(=O)=O)cc3)c(O)nc2c1	2%	-13%
O=C(CCS(=O)(=O)c1cc(Br)cc2c1N(C(=O)C1CC1)CC2)N1CCN(c2cccc(Cl)c2)CC1	?	-8%
COC(=O)Cn1c(SCCOc2ccccc2OC)nc2ccccc21	4%	-7%
Cc1cc(=O)n(Cc2ccccc2Cl)c2c1c(C)nn2-c1ccccc1	-19%	-19%
C[C@]12CCC3=C4CCC(=O)C=C4CC[C@@H]3[C@H]1CC[C@@]2(O)CC#N	.	-7%
COc1ccccc1C(=O)NCCc1csc(-c2ccc(C(F)(F)F)cc2)n1	?	?
COc1ccc(OCC(=O)Nc2ccc(O)c(-c3nc4ccccc4s3)c2)cc1	?	-25%[11.5 µM]
COc1ccc(-c2cc(C)nc3c(-c4ccc(OC)c(OC)c4)c(C)nn23)cc1	?	?
CCOC(=O)c1c(C)oc2nc(C)nc(NCC3CCN(Cc4cccc(Cl)c4)CC3)c12	-14%	-19%
CCOc1ccccc1NC(=O)N1CCN(Cc2cc(=O)n3nc(-c4ccc(C)cc4)sc3n2)CC1	?	-13%
Brc1ccc(-c2ccc(CNCCSc3nnnn3-c3ccccc3)o2)cc1	-28%	60%[activator]
COc1ccccc1NC(=O)c1c(NCc2ccc(C)o2)sc2c1CCC(C)C2 (centres undefined)	?	-26%
CCN(CC)CCn1c2c(c(SCC(=O)Nc3cccc(C(F)(F)F)c3)nc1=O)CCC2	16µM*	-25%
COc1ccc(C2=NS(=O)(=O)N(C)C(C(=O)N(C)Cc3ccccc3)=C2)cc1OC	?	?
COc1ccc(CNC(=O)c2cc(-c3ccc(OC)cc3)nc3n[nH]c(-c4cccc([N+](=O)[O-])c4)c23)cc1	?	?
COc1ccc(-c2cc(C(F)(F)F)c(C#N)c(SCC(=O)Nc3cccc(C)c3)n2)cc1	1%	-12%
COc1ccccc1NC(=O)CSc1nncn2c1cc1sccc12	?	5%
COc1ccc(OC)c(NC(=O)CSC2=Nc3ccccc3C3=NC(CCC(=O)NCc4ccco4)C(=O)N23)c1 (centres undefined)	11%	-9%
COc1ccccc1NC(=O)Cn1nc(C)n2cccc2c1=O	-5%	2%
COc1cccc(-n2c(-c3ccc(Cl)cc3)cc3c2CC(C)(C)CC3=O)c1	-9%	-30%

# Going on with the list:
Molecule	PMP22 txn prim	HTT prom inh
CCC(=O)N1CCc2cc(Br)cc(S(=O)(=O)CCC(=O)NCCc3ccccc3)c21	2%	-2%
CC(C)Oc1ccc(CNS(=O)(=O)c2ccc3c(c2)C(C)(C)C(=O)N3C)cc1	-12%	-22%
Cc1cc2nc(-c3ccc(OCc4ccccc4Cl)cc3)cc(C(F)(F)F)n2n1	-11%	1%
Fc1ccc(-n2ncc3c(N4CCC(Cc5ccccc5)CC4)ncnc32)cc1	0%	-14%
CCOc1ccccc1CNC(=O)c1cccc(NC(=O)c2nsc3ccccc23)c1	?	16%
Cc1ccccc1NCc1nc2ccccc2n1CCOc1ccccc1	?	51%[activator]
O=C1CC(=O)Nc2cc(S(=O)(=O)Nc3cccc(Br)c3)ccc2N1	-3%	-12%
CC(C)CC(=O)NCC1(N(C)C)CCCCC1	?	-9%
COc1ccc(OC)c(C2Nc3c(C)cc(C)cc3-c3cc(C)nn32)c1 (centres undefined)	-76%	-25%[11.5 µM]
Cc1cc(C)c2nc(N3CCCC(C(=O)NCc4cccc(Br)c4)C3)sc2c1 (centres undefined)	-16%	20%
CC(C)Sc1ncc(Cl)c(C(=O)Nc2nnc(C(C)C)s2)n1	9%	-4%
CCOc1ccc(Oc2nc(NCC(C)C)nc(NC(C)(C)C)n2)nn1	?	7%
O=C1[C@@H]2CSC(c3ccc(Cl)cc3)N2C(=O)N1c1ccccc1 (some centres undefined)	-3%	-22%
COc1ccc(CCN2C(=O)CN(C3CCC(C)CC3)C(=O)C2c2ccc(OC(C)C)c(OC)c2)cc1OC (centres undefined)	?	-29%
COc1ccc2cc3cc(C(=O)NCc4ccccc4OC)oc3nc2c1	-3%	-12%
CCOC(=O)CCn1cnc2onc(-c3ccccc3Cl)c2c1=O	-6%	-3%
O=C(O)Cn1cnnn1	.	3%
CCOc1ccc(CCNC(=O)C2CCN(C(=O)N3CC(CC)Oc4ccccc43)CC2)cc1 (centres undefined)	?	6%
COc1ccccc1CNC(=O)c1cc2cccc3c2n1CCS3	-7%	?
Clc1ccc(CSc2nncn3c2cc2occc23)cc1	-5%	-20%
COC(=O)CCn1cnc2onc(-c3cc(F)cc(F)c3)c2c1=O	-15%	-19%
COc1ccc(C2C(=O)N(C3CCCCC3)CC(=O)N2C2CCCCC2)cc1 (centres undefined)	-5%	-9%
CC(C)c1ccc(Nc2ncnc3c2nc2n3CCCC2)cc1	?	-19%
CSc1ccc(CNC(=O)c2ccc3c(c2)N(C)C(=O)C2CCCCN32)cc1 (centres undefined)	-32%	21%
Cc1ccc(-n2nnnc2CNC(=O)c2ccccc2S(C)(=O)=O)cc1C	5%	0%
Cc1nnc(NC(=O)c2ccccc2)s1	4%	62%[activator]
Cn1c(=O)[nH]c2cc(-c3noc(-c4cccc(Cl)c4)n3)ccc21	-17%	3%
CCOc1ccc(CNC(=O)CN2C(=O)CSc3ccc(S(=O)(=O)N4CCOCC4)cc32)cc1OC	-23%	-13%
Cc1ccc(S(=O)(=O)c2nnn3c2nc(NC2CCCCC2)c2sccc23)cc1	?	-7%
Cc1ccc(C)c(Cn2nnc(C(=O)NCc3ccc(Cl)cc3Cl)c2N)c1	?	-7%

# 6 compounds drawn at random from the list so far:
Molecule	PMP22 txn prim	HTT prom inh
O=C(O)Cn1cnnn1	.	3%
COc1ccccc1CNC(=O)c1cc2cccc3c2n1CCS3	-7%	?
Fc1ccc(-n2ncc3c(N4CCC(Cc5ccccc5)CC4)ncnc32)cc1	0%	-14%
O=C1[C@@H]2CSC(c3ccc(Cl)cc3)N2C(=O)N1c1ccccc1 (some centres undefined)	-3%	-22%
Cc1ccccc1NCc1nc2ccccc2n1CCOc1ccccc1	?	51%[activator]
CCOc1ccc(CCNC(=O)C2CCN(C(=O)N3CC(CC)Oc4ccccc43)CC2)cc1 (centres undefined)	?	6%

# (continued)
Molecule	PMP22 txn prim	HTT prom inh
Cc1ccc(CNC(=O)C2CCN(S(=O)(=O)c3ccc4[nH]c(=O)ccc4c3)CC2)cc1	-27%	-6%
COCc1cc(C)nc2sc(C(=O)Nc3ccc(OC(F)(F)F)cc3)c(N)c12	-26%	-21%
CCN1C(=O)c2ccccc2Sc2ccc(NC(=O)Nc3cc(C)cc(C)c3)cc21	?	20µM*
CCN(CC)c1ccc(NC(=O)CCc2nc3cccnc3n2Cc2cccs2)c(C)c1	9%	-17%
COc1ccc(C2CC(=O)c3cc(-c4nc(-c5ccc(Cl)cc5)c(C)s4)c(=O)[nH]c3C2)cc1 (centres undefined)	?	-4%
CCOc1ccccc1C1C(C(=O)Nc2ccccc2)=C(C)Nc2nc(-c3ccccc3)nn21 (centres undefined)	?	-9%
COc1ccc(NC(=O)C2CCC(CNS(=O)(=O)c3ccc(Br)s3)CC2)cc1OC (centres undefined)	?	-11%
COc1ccccc1N1CCN(S(=O)(=O)c2ccc(-c3ccno3)cc2OC)CC1	-12%	-20%
O=C(Nc1ccc(C(F)(F)F)cc1)C1CCC(CNS(=O)(=O)c2cccc3nsnc23)CC1 (centres undefined)	-25%	-41%
Cc1ccc(O)c(NC(=O)c2cc(-c3ccc(F)cc3)on2)c1	?	75%[activator]
COC(=O)[C@H](Cc1ccccc1)NC(=O)[C@@H](N)CC(=O)O	.	-11%&2%
COc1ccc(NC(=O)c2sc3nc(C)c(C(=O)Nc4ccc(C)cc4C)c(-c4cccs4)c3c2N)cc1	?	-25%
COc1cc(OC)c(Nc2c3c(nc4nc(-c5cccs5)nn24)CCCC3)cc1Cl	8%	?
Cc1ccc2onc(CC(=O)N3CCN(c4ccccc4F)CC3)c2c1	-1%	-16%
